H5N1 CPE = MDCK cell protection from H5N1 avian flu. 96,000 compounds, 0.07% hits. inhibition, % at 50 µM. cytopathic effect, luminescence, 72 h; hits give high values; no value below 0 was filed and about half of the inactive calls have no number; reference of the scale not given here; in the data active = inhibition above about 25%
Starred values were filed as active, the others as inactive; i = inactive. The list is partial; the hit share may differ from the screen's.

smiles | H5N1 CPE
COc1ccc(OC)c(S(=O)(=O)Nc2ccc(CC(=O)O)cc2)c1 | 1.2
COc1cccc(C(=O)O/N=C/c2ccc(Sc3ccc(C)cc3)nc2)c1 | i
O=C(O)c1sccc1S(=O)(=O)c1ccccc1 | 0.8
O=c1[nH]c2ccccc2c(=O)n1Cc1ccccc1 | 0.2
O=C(NCCc1ccccc1)c1noc2c1CCCCC2 | i
NC(=O)C1CCN(c2ncnc3c(-c4ccccc4)nsc23)CC1 | 0.7
CC(SC(=S)N1CCOCC1)C(=O)O (configuration not stated) | 1.3
COc1cc(NC(=O)Cc2ccc(Cl)cc2)ccc1NC(=O)c1ccco1 | i
O=C(c1cccc(Cl)c1)N1CCN(C(=O)c2ccccc2F)CC1 | 0.0
CCC/C(O)=C1\C(=O)CC(C)(C)CC1=Nc1ccccc1OC | 1.9
CN1C(=O)C2(NCCc3c2[nH]c2ccccc32)c2ccccc21 (configuration not stated) | i
Cc1ccc(C(C(=O)NCc2ccco2)N(CC2CCCO2)C(=O)Cn2nnc3ccccc32)cc1 (configuration not stated) | i
c1ccc(-n2ncc3c2ncn2cnnc32)cc1 | i
CNC(=S)NN(c1ccccc1)c1ccccc1 | 0.5
Cc1ccc(SCC(=O)N2CCCC2)cc1 | i
O=C(Cc1cccs1)Nc1nc(-c2ccccc2)cs1 | i
O=C(Nc1ccccc1F)c1ccc2nc(N3C(=O)CCC3=O)sc2c1 | i
Cc1cc(C)c2c(=O)cc(C(F)F)oc2c1 | 0.1
COCCNC(=O)COc1ccc(C)cc1C | 0.9
COc1ccc(CCNC(=O)/C=C/c2ccc(C)cc2)cc1OC | i
O=C(CCN1C(=O)C2C3C=CC(C3)C2C1=O)NCC1CCCO1 (configuration not stated) | 0.4
Nc1nonc1/C(=N/O)N1CCCC1 | 0.3
CCC(=O)Oc1ccc2c(C)c(Cl)c(=O)oc2c1 | 0.9
COc1ccc(OCCCSc2ncccn2)cc1 | i
N#Cc1nc(-c2ccc(Cl)cc2)oc1N1CCCCC1 | 0.1
CCOC(=O)N1CCC(NC(=O)c2ccc3c(c2)N(Cc2ccc(C)cc2)CCS3)CC1 | 1.2
CCOC(=O)CNC(=O)C1CCCN(c2ncccn2)C1 (configuration not stated) | 0.2
CCc1nnc(NC(=O)Cn2nc(-c3ccccc3OC)ccc2=O)s1 | 0.1
COc1ccc(N2C(=O)C3CCCN3C2c2ccccc2)cc1Cl (configuration not stated) | i
Fc1ccccc1-n1[nH]nnc1=S | i
O=C(Nc1ccccc1C(F)(F)F)c1ccc(F)c(S(=O)(=O)N2CCOCC2)c1 | i
CCC(c1nnnn1CC1CCCO1)N(CCCO)Cc1cc2cccc(C)c2[nH]c1=O (configuration not stated) | 0.6
O=C(COc1ccc(/C=N/NS(=O)(=O)c2ccccc2)cc1)NCCc1ccccc1 | 0.4
Cc1nn(C(C)C(=O)O)c2ccccc12 (configuration not stated) | i
NC(=NC(=O)c1ccccc1)N1CCOCC1 | 0.8
CC1CCc2c(C(=O)NCC3CCCO3)csc2C1 (configuration not stated) | 0.4
CNC(=O)c1sccc1SCc1c(Cl)cccc1Cl | 6.0
CCOC(=O)CC1COc2ccccc2N1C(=O)c1ccc(C)cc1 (configuration not stated) | 0.7
Cn1ccnc1SCC(=O)NC1CC1 | 3.3
Cc1cccc(CCNc2nc3ccccc3n3nnnc23)c1 | 0.8
NS(=O)(=O)c1ccc(CNC(=O)C23CC4CC(CC(C4)C2)C3)cc1 | i
CCOC(=O)c1nnc2cc(-c3ccc(Br)cc3)nn2c1C | i
CCCCC(=O)Nc1ccc(NC(=O)c2ccccc2OC)cn1 | i
Cc1ccc2[nH]c(=O)c(CN(Cc3cccnc3)C(=O)c3ccncc3)cc2c1 | i
CC(C(=O)NCc1ccc2c(c1)OCO2)N1c2cccc3cccc(c23)S1(=O)=O (configuration not stated) | 0.8
COc1cccc(-c2nc(CS(=O)(=O)CC(=O)NCCCOC(C)C)c(C)o2)c1 | 0.3
Cc1cc(C)n(CCCNCC(O)c2ccccc2)n1 (configuration not stated) | i
COC(=O)c1ccc(N2CCOCC2)c(NC(=O)Nc2cccc(OC)c2)c1 | i
COc1nc(C)nc(NC(=O)NS(=O)(=O)c2ccc(C)cc2)n1 | i
CCCCCn1c(N)c(C#N)c2nc3ccccc3nc21 | i
Cc1cc2ncn(C3CC(=O)N(Cc4ccc(N5CCCC5=O)cc4)C3=O)c2cc1C (configuration not stated) | 0.9
COC(=O)c1sc(NC(=O)c2oc3ccccc3c2C)nc1C | i
CCN(CC)c1ccc(NC(=O)OC)cc1 | 0.1
COc1ccc(C(=O)O)cc1F | 0.2
COC(=O)c1ccc(CN2C(=O)NC3(CCC(C)CC3)C2=O)o1 (configuration not stated) | 1.3
Cc1nnc(NCCc2ccccc2)[nH]c1=O | 1.6

New compounds follow:
smiles | H5N1 CPE
CCOc1ccc(C2=C(C=Nc3c(C)n(C)n(-c4ccccc4)c3=O)C(c3ccc(F)cc3)c3ccccc3O2)cc1 (configuration not stated) | 0.7
CCOc1c2ccc(C(=O)NCCc3ccc(C)cc3)cc2nn1CC | 1.0
CCN=C(Nc1ccc2c(c1)OCO2)SC1CC(=O)N(c2ccccc2F)C1=O (configuration not stated) | i
Cc1ccccc1C1C(C#N)=C2N=C(N)c3c(sc4c3CCCCC4)N2C2=C1C(=O)CC(C)(C)C2 (configuration not stated) | i
O=c1[nH]n(-c2ccc(F)cc2)c2ncccc12 | i
Cc1nn(Cc2ccccc2)c(C)c1C(=O)OCC(=O)c1cc(C)n(CC(F)(F)F)c1C | 1.7
CCN(CC)CCNc1nc(-c2ccco2)c2c(c1C#N)CC(C)(C)OC2 | i
Cc1ccc(CNC(=O)c2nc3nc(C)cc(C)n3n2)cc1 | i
O=C(NNC(=O)c1ccccc1F)c1cccc(Cl)c1 | 9.0
CCOCCCNCC(=O)N1CCN(S(=O)(=O)c2ccc(C)cc2)CC1 | i
CCCc1cc(=O)[nH]c(SCC(=O)N(CC)C2CCS(=O)(=O)C2)n1 (configuration not stated) | 1.6
COc1ccc2c(c1)C=C(C(=O)NCc1ccc(Cl)cc1)CO2 | i
CCOC(=O)C1CCN(C(c2cccc(F)c2)c2sc3nc(C)nn3c2O)CC1 (configuration not stated) | 0.1
Cc1nc2ccccc2n1C1CC(=O)N(N(C)C)C1=O (configuration not stated) | 1.5
O=C(CSc1cccc(C(F)(F)F)c1)N1CCN(S(=O)(=O)c2ccccc2)CC1 | 0.1
CC(C)(C)c1ccc(OCC(=O)NC2CCS(=O)(=O)C2)cc1 (configuration not stated) | 0.9
Cc1ccc(N)c(C(=O)c2ccccc2)c1 | 1.3
COc1ccc(NC(C)=O)cc1NC(=O)CSc1nnc(-c2cccnc2)n1C | 0.8
COc1ccccc1CC1(C)NC(=O)N(CC(=O)Nc2cc(C)on2)C1=O (configuration not stated) | i
COc1ccc(C)cc1NC(=O)C1CC(=O)OC12CCCCC2 (configuration not stated) | 1.0
O=S(=O)(Nc1cccc2cccnc12)c1ccc(S(=O)(=O)N2CCCC2)cc1 | 1.7
COc1ccc(Cl)cc1N(CC(=O)Nc1ccc2c(c1)OCO2)S(C)(=O)=O | 0.1
Cc1cc2c(c(=O)n1CCc1ccccc1)C(c1ccco1)C(C#N)=C(N)O2 (configuration not stated) | 0.2
Cc1cc(C)c(S(=O)(=O)c2c(C)cccc2C)c(Cl)n1 | 0.4
CCCCC(Nc1ncnc2ccccc12)C(=O)O (configuration not stated) | 0.1
COc1cccc(-c2nnc(SCc3ccccn3)n2C)c1 | 0.3
CCOC(=O)c1[nH]c2cc3c(cc2c1NC(=O)CN1CC(C)CC(C)C1)OCO3 (configuration not stated) | 0.1
CCOc1ccc(NS(=O)(=O)c2ccc(OCC(=O)N3CCCC3)cc2)cc1 | i
O=C(NCc1ccc(Cl)cc1)c1cnccn1 | i
CC1=C(C)CC(C(=O)N2CCN(Cc3ccccc3)CC2)C(C(=O)O)C1 (configuration not stated) | 0.1
COC(=O)CN(n1cnnc1)S(=O)(=O)c1ccc(C)cc1 | i
COc1ccc(Nc2ncc(C(=O)N3CCN(Cc4ccccc4)CC3)c3ccccc23)cc1 | i
CCn1nc(C)c(NS(=O)(=O)c2ccccc2)c1C | i
O=C(c1cc(-n2cnnc2)ccc1Cl)N1CCN(c2nc(-c3ccccc3)cs2)CC1 | i
O=C1CN(C(=O)CCCc2c[nH]c3ccccc23)c2ccccc2N1 | i
Cn1nc(CC(=O)NC2CCCCCC2)c2ccccc2c1=O | 1.5
CC1CCC(NC(=O)C2CCN(c3cnccn3)CC2)CC1 (configuration not stated) | i
Cc1nn(C)c(C)c1S(=O)(=O)N1CCc2ccccc21 | 1.2
Cc1ccc(C(=O)COC(=O)CCC(=O)NC2CCCCC2)cc1C | 0.1
COc1ccc(C2NC(=O)c3ccccc3O2)c(OC)c1OC (configuration not stated) | i
CCOc1nc(N(C)C)nc(-n2nnc(C(C)=O)c2C)n1 | i
Cc1ccc(C)c(C(=O)CC2(O)C(=O)N(C)c3ccccc32)c1 (configuration not stated) | 1.3
O=C(CCCN1CCOCC1)c1ccc2c(c1)OCCO2 | 0.7
COCc1cc(C)nc(Nc2ccc(C)cc2C)c1C#N | 0.9
Brc1ccc(Oc2ncc(CN3CCN(c4ccccc4)CC3)s2)cc1 | i
CCCc1nc2oc3c(NCCN(C)C)ncnc3c2c2c1CCCC2 | i
N#C/C(C(=O)c1ccccc1)=C1/CCCN1 | i
Cc1ccc(C(=O)NNC(=O)C2CCN(c3nc(C)cc(C)n3)CC2)cc1 | i

An excerpt of these results, field by field:
Cc1ccc(C)c(C(=O)CC2(O)C(=O)N(C)c3ccccc32)c1 (configuration not stated)
  H5N1 CPE = 1.3
O=C(CCCN1CCOCC1)c1ccc2c(c1)OCCO2
  H5N1 CPE = 0.7
COCc1cc(C)nc(Nc2ccc(C)cc2C)c1C#N
  H5N1 CPE = 0.9
Brc1ccc(Oc2ncc(CN3CCN(c4ccccc4)CC3)s2)cc1
  H5N1 CPE = i

Next section.
smiles | H5N1 CPE
Cn1c(COc2ccccc2)nnc1SCC(=O)NCc1ccccc1 | 0.5
Cc1cc(C)n(-c2nc3ccccc3[nH]c2=O)n1 | i
CO/N=C/NC(=O)c1c(OC)ccnc1Oc1ccc(Cl)cc1 | i
c1cncc(-c2csc(NCc3ccco3)n2)c1 | 0.9
O=C(Nc1cccc(C(F)(F)F)c1)N1CCN(C(=O)Nc2cccc(C(F)(F)F)c2)CC1 | i
COC(=O)CCCC(=O)Nc1ccc(Cl)c(Cl)c1 | i
CCOC(=O)CSC1=NC(=O)CS1 | 0.3
CCN1C(=O)C2(C(C#N)=C(N)Oc3n[nH]c(C(C)C)c32)c2ccccc21 (configuration not stated) | i
Cc1ccc(Cn2ccc(NC(=O)c3cc(-c4ccc(Cl)cc4)on3)n2)cc1 | i
O=C(O)CCN1C(=O)/C(=C\c2ccc(-c3nc4ccccc4s3)o2)SC1=S | 0.7
CCOc1ccc(Br)cc1/C=N/NC(=O)c1ccncc1 | i
COC(=O)C1(c2ccccc2)NC(c2cccs2)C2C(=O)N(C)C(=O)C21 (configuration not stated) | 0.6
Cc1noc(C)c1S(=O)(=O)N1CCCC(C(=O)Nc2nccs2)C1 (configuration not stated) | 0.2
CCCc1ccc(/C=C2\C(=O)c3ccccc3C(O)=C2C(=O)OCC)cc1 | 5.7
O=C1c2ccccc2C(Nc2ccc(F)cc2F)N1CCN1CCOCC1 (configuration not stated) | i
CC(=O)OCC1OC(c2ccccc2)C(OC(C)=O)C(OC(C)=O)C1OC(C)=O (configuration not stated) | i
COc1ccc(-n2nnnc2SCC(=O)Nc2nnn(C)n2)cc1 | 1.0
CCOC(=O)c1ccc(COC(=O)CNC(=O)CNC(=O)c2ccc(OC)cc2)o1 | 0.9
O=C(Nc1cccc2ccccc12)N1CCN(c2ccc(F)cc2)CC1 | i
Cc1nc(NC(=O)c2cccc(Cl)c2)sc1-c1csc(Nc2cccc(Cl)c2)n1 | i
COC(=O)C1=C(C)N(Cc2ccc(OC)c(OC)c2)C(=O)C1 | i
O=C(CNC(=O)Cn1ccc2ccccc2c1=O)NCCCN1CCCCCC1 | 1.2
COc1ccc(OC)c(NC(=O)CSc2nnnn2-c2ccccc2F)c1 | 0.8
COc1ccc(C(c2nnnn2C(C)(C)C)N2CCN(c3nc4ccccc4s3)CC2)cc1 (configuration not stated) | 2.5
Cc1c(N=C/C=C/c2ccccc2)cnn1C | i
O=C(O)C1CCC(=O)N1Cc1ccc(F)cc1 (configuration not stated) | 0.6
COc1cc(S(=O)(=O)NCc2ccccc2)ccc1F | 1.1
Cc1ccc(-c2nn(C)c(=O)c3ccccc23)cc1CNC(=O)/C=C/c1ccccc1 | 0.1
Cn1c(CCNC(=O)C(C)(C)C)nc2ccccc21 | 1.1
O=c1oc(-c2cccc(Cl)c2)nc2c1cnn2-c1ccccc1 | i
CC1(C(=O)NC2CCCC2)CCC(=O)N1Cc1cccs1 (configuration not stated) | 0.1
O=C(Nc1ccc(NC(=O)C2CC2)nc1)c1ccncc1 | i

Exported as labelled records: entries from further up
Compound: O=C(Nc1ccc(NC(=O)C2CC2)nc1)c1ccncc1
  H5N1 CPE = i
Compound: O=C(O)C1CCC(=O)N1Cc1ccc(F)cc1 (configuration not stated)
  H5N1 CPE = 0.6
Compound: COc1cc(S(=O)(=O)NCc2ccccc2)ccc1F
  H5N1 CPE = 1.1
Compound: CC1(C(=O)NC2CCCC2)CCC(=O)N1Cc1cccs1 (configuration not stated)
  H5N1 CPE = 0.1

Compound activity as filed in PubChem.
